From PubChem BioAssay
Kir21 inh: inhibitors of mouse Kir2.1 inward-rectifier potassium channel; Inward rectifier potassium channel 2 (Mus musculus), P35561; HEK293-Kir2.1, FluxOR thallium flux fluorescence; active compounds read low; B-score at 10 µM; actives 0.85% (n = 310,000);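 active means fluorescence ratio B-score at or below minus 3 SD of library scores, with starting-brightness B-score within 2 SD, cut at about -4.2 in these data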;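 further: channel flux triggered by added potassium and thallium sulfate stimulus; B-score of peak minus minimum fluorescence over baseline after thallium stimulus; more negative B-score means stronger Kir2.1 block with less thallium influx; some compounds called inactive have numbers as strong as hits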
Target sequence (P35561 whole entry, looked up): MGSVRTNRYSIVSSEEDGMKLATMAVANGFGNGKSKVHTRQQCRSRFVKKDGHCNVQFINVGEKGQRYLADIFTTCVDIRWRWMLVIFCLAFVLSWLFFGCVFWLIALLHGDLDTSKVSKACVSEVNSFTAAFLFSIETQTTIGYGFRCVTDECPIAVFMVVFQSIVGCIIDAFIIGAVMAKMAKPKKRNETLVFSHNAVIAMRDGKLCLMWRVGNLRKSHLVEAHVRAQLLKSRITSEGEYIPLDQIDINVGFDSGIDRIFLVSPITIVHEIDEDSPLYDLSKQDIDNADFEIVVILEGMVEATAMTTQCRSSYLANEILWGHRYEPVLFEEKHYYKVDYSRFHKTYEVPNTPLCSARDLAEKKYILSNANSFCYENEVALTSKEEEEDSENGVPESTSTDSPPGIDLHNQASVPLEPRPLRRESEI
* marks the source's active call; other numbers are inactive results. Not all compounds are listed, and most or all hits are left out here.

Kir21 inh | smiles
-0.36 | Cc1c(Cl)ccc2c1NC(=O)C21NC(CCC(N)=O)[C@H]2C(=O)N(c3ccc(Cl)cc3)C(=O)[C@H]21 (stereo not given in full)
-0.28 | Nc1cc(S(=O)(=O)N2CCCCC2)ccc1N1CCOCC1
0.21 | N#CCSc1nnc(Nc2ccccc2)s1
-0.17 | CC(C)(C)N1C(=O)c2ccccc2NC(=O)N1Cc1ccccc1
1.2 | O=C(OCC(=O)N1CCCc2ccccc21)c1cncc(Br)c1
-1.4 | CCOc1ccc(NC(=O)CCCn2nc(C)c3c(C)n(-c4ccccc4)nc3c2=O)cc1
0.02 | CCN1C(=NCCc2c[nH]c3ccccc23)N[C@@H](c2ccccc2)[C@H](C(=O)OC)[C@H]1C
-1.4 | CN1CCc2c(sc(N)c2C(=O)c2ccc(Cl)cc2)C1
0 | CSc1ccccc1C(=O)NCCc1ccc(S(=O)(=O)N2CCCCC2)cc1
-2.1 | CCn1c(C)nc2cc(C(=O)NNC(=S)Nc3ccc(Cl)cc3Cl)ccc21
-2.5 | COc1nc(N)nc(NC(=O)c2cccs2)c1N=O
-0.3 | CCc1ccc(C(=O)CSc2nc3ccccc3c(=O)[nH]2)cc1
1.1 | Cc1ccc(NC(=O)c2sc3ncn(CC(=O)N4CCN(c5ccccn5)CC4)c(=O)c3c2C)cc1F
0.91 | CC(C)Oc1ccc(C(=O)Nc2ccc([N+](=O)[O-])cc2)cc1
0.18 | Cn1c(N)c(C(=O)Nc2ccc(-c3ccccc3)cc2)sc1=S

Not a retest: entries from further up.
Kir21 inh | smiles
-0.36 | Cc1c(Cl)ccc2c1NC(=O)C21NC(CCC(N)=O)[C@H]2C(=O)N(c3ccc(Cl)cc3)C(=O)[C@H]21 (stereo not given in full)
-0.28 | Nc1cc(S(=O)(=O)N2CCCCC2)ccc1N1CCOCC1
0.21 | N#CCSc1nnc(Nc2ccccc2)s1
-0.17 | CC(C)(C)N1C(=O)c2ccccc2NC(=O)N1Cc1ccccc1
1.2 | O=C(OCC(=O)N1CCCc2ccccc21)c1cncc(Br)c1
-1.4 | CCOc1ccc(NC(=O)CCCn2nc(C)c3c(C)n(-c4ccccc4)nc3c2=O)cc1

The results go on:
Kir21 inh | smiles
0.31 | Cc1ccc(C)c(S(=O)(=O)N2CCN(C(=O)Cc3ccccc3)CC2)c1
0.68 | OCCN1c2ccccc2CCc2ccccc21
-0.56 | CCn1c(/C=C/c2ccc(F)cc2)nc2ccccc2c1=O
-1.6 | CN(C)c1ccsc1C(=O)NNS(=O)(=O)c1ccc(Cl)cc1
-1.3 | COc1ccc(CN(Cc2ccccn2)S(=O)(=O)c2ccc(-n3cnnn3)c(OC)c2)cc1
1.4 | Cc1c(C)[n+](=O)c(-c2ccc(Br)cc2)c(C)n1[O-]
2.1 | Cc1cc(C)c2c(=O)[nH]c(SCC(=O)NCCc3ccccc3)nc2n1
-3.8 | CCC(Sc1nc(N)cc(=O)[nH]1)C(=O)NC(C(=O)OC)c1ccccc1 (stereo not given)
0.7 | CN(C)S(=O)(=O)c1cccc(C(=O)Nc2cccnc2)c1
0.51 | c1cc(CNc2ccc3c(c2)OCCO3)ccn1
0.06 | CC(=O)C1=C(C)N2CCN=C2S1
1.5 | CCC(CNc1cc(OC)cc2cccnc12)NC1CCCCC1 (stereo not given)
0.86 | CCC(C(=O)NCc1ccco1)n1nc(-c2ccc(OC)cc2)ccc1=O (stereo not given)
0.4 | CCCCN1C(=O)N(c2ccc(Cl)cc2)C(C)(O)CC1(C)C (stereo not given)
-0.03 | Nc1nc(SCC(=O)Nc2ccc(C(F)(F)F)cc2)[nH]c(=O)c1NC(=O)c1ccc(F)c(F)c1

The final 6 entries of the part before open the next one.
Kir21 inh | smiles
0.51 | c1cc(CNc2ccc3c(c2)OCCO3)ccn1
0.06 | CC(=O)C1=C(C)N2CCN=C2S1
1.5 | CCC(CNc1cc(OC)cc2cccnc12)NC1CCCCC1 (stereo not given)
0.86 | CCC(C(=O)NCc1ccco1)n1nc(-c2ccc(OC)cc2)ccc1=O (stereo not given)
0.4 | CCCCN1C(=O)N(c2ccc(Cl)cc2)C(C)(O)CC1(C)C (stereo not given)
-0.03 | Nc1nc(SCC(=O)Nc2ccc(C(F)(F)F)cc2)[nH]c(=O)c1NC(=O)c1ccc(F)c(F)c1
0.45 | COc1ccc(C2CC(c3ccccc3C)n3nc(N)nc3N2)cc1 (stereo not given)
1.1 | COc1ccc(/C=C/C2=NN(Cc3ccccc3)C(=O)CC2)cc1
0.63 | CCCc1cc2c(OC(=O)CC)c(-c3ccc(C(=O)OCC)o3)c(=O)oc2cc1OC
0.02 | Cc1nnc(SCC(=O)Nc2ccc(S(=O)(=O)N3CCCCC3)cc2)s1
0.2 | CC(C)c1cc(Nc2cccc(O)c2)cc(C(C)C)c1O
-1.2 | ClCC1NCC(c2ccccc2Cl)c2c1[nH]c1ccccc21 (stereo not given)
0.72 | COc1ccc(C(=O)NCCC2=CCCCC2)cc1[N+](=O)[O-]
-1.1 | CC(C)C(=O)N1CCN(c2ccc(NC(=O)c3ccc([N+](=O)[O-])o3)cc2)CC1
-2 | Cc1ccc(-c2nnn(CC(=O)NCC3CC3)n2)o1
0.6 | COCCNS(=O)(=O)c1cc(-c2nn(C)c(=O)c3ccccc23)ccc1C
0 | CCOC(=O)C1CCN(c2nnc(N3CCCC3=O)s2)CC1
-1 | Cc1cc(C)cc(OCC(O)Cn2nc(C)cc2C)c1 (stereo not given)
-0.16 | Cc1[nH]nc2c1C(c1ccc(Cl)cc1)C(C#N)=C(N)O2 (stereo not given)
0.13 | CC1=NN(c2ccccc2)C(=O)/C1=C\c1cc(C)n(C)c1C
0.85 | Cc1ccc(NC(=O)C2=C(C(=O)O)CCCC2)cc1F
0.97 | Cc1ccc(-n2c(=S)[nH]c3nc4c(cc3c2=O)COC(C)(C)C4)cc1
0.01 | COc1ccc(/C=N/NC(=O)CCOc2ccccc2C)cc1OC
-1.4 | COc1ccc(Cn2c(C(F)(F)F)ccc(C(N)=O)c2=O)cc1
-0.01 | COc1cc(/C=N\n2nnnc2N)ccc1OCc1ccc(F)cc1
2.2 | COc1ccc2nc(/C(C#N)=C\c3ccc(Oc4ccc([N+](=O)[O-])cn4)cc3)[nH]c2c1
0.81 | O=c1cc(CN2CCCCCC2)nc2sccn12
-1.8 | CN(C)C(=S)SCC(=O)NCc1ccc(F)cc1
-0.01 | CCOc1ccc(CCNC(=O)CN2C(=O)c3cccnc3Oc3ccc(C)cc32)cc1OCC
0.12 | Cc1ccc(S(=O)(=O)NC(=O)c2cc(C)n(-c3cc(S(=O)(=O)N4CCOCC4)ccc3N3CCCC3)c2C)cc1
-0.76 | COc1ccc(C2CC(=O)Oc3c2c(=O)n(C)c2ccccc32)c(OC)c1OC (stereo not given)
0.06 | NC(=O)c1cc(S(=O)(=O)N2CC=C(c3ccccc3)CC2)cs1
-0.42 | CC1CCCN(C(=O)Cn2c3ccccc3c3nc4n(c(=O)c32)CCS4)C1 (stereo not given)
-1.8 | CCOC(=O)Cc1nn(CC)c(=O)c2ccccc12
-0.01 | Cc1cc(N2C(=O)C3CCC(c4ccccc4)CC3C2=O)no1 (stereo not given)
0.22 | O=C(O)c1[nH]c2ccccc2c1C(c1c(F)cccc1Cl)c1c(C(=O)O)[nH]c2ccccc12
0.26 | O=C(Nc1ccc(F)cc1F)N1CCC(c2nc3ccccc3o2)CC1
0.14 | NC(=O)CCC(=O)N1CCCC(C(=O)c2ccc3c4c(cccc24)CC3)C1 (stereo not given)
0.92 | CCc1ccc(C(=O)COC(=O)C(Cc2ccccc2)NC(=O)c2ccc(Cl)cc2)cc1 (stereo not given)
-0.01 | Cc1sc(NC(=O)c2ccco2)c(CN2CCC(C)CC2)c1C
-0.83 | NS(=O)(=O)CCCc1ccccc1
0.46 | O=C(CSC1=NCCS1)Nc1nc2ccccc2s1
0.78 | CCOc1ccc(C(=O)Cc2ccc3oc(C(=O)O)cc3c2)c(O)c1
-1.8 | COc1ccc(OC)c(S(=O)(=O)N2CCC(C(=O)N3CCCCCC3)CC2)c1
-0.81 | COc1ccccc1NC(=O)Nc1nc(CC(=O)Nc2ccc(F)c(F)c2)cs1
-1 | COCc1cnc(C)nc1N
-0.76 | CC(=O)c1cccc(CN2CCN(CCc3ccccc3)C(CCO)C2)c1 (stereo not given)
1.7 | CCN(CC)c1ccc(C(=O)OCC(=O)N2CCCC2)cc1
2.9 | COCCCNC(=S)N1CCC(C(=O)c2ccc3c(c2)OCCO3)CC1
5.8 | Cc1ccccc1-n1c(=O)c(C#N)cc2c(=O)n3ccccc3nc21
0.23 | Cn1c(-c2cccc([N+](=O)[O-])c2)cnc1NCc1ccc(C#N)cc1
2.3 | CCSC1=C(C#N)C(c2ccccc2OC)CC(=O)N1 (stereo not given)
0.02 | O=C(CSCc1cccc(CSCC(=O)Nc2ccc3ccccc3c2)n1)Nc1ccc2ccccc2c1
2.1 | COc1ccc(Cc2nnc(NC(=O)C3CC(=O)N(c4ccccc4C)C3)s2)cc1OC (stereo not given)
-0.16 | CCC(Oc1ccccc1)C(=O)Nc1nnc(S(=O)(=O)N2CCCC2)s1 (stereo not given)
-0.16 | O=C(c1ccc(Br)s1)N1CCN(S(=O)(=O)c2ccccc2)CC1
-0.49 | Cn1ccnc1SCc1cccc([N+](=O)[O-])c1
1.2 | Cc1ccn2c(=O)nc(SCC(=O)N3CCCCC3)nc2c1
0.5 | Cc1ccccc1NC(=O)C1CCN(c2cc(-c3ccccc3)nc3ncnn23)CC1
1.2 | CC(=O)N(CCC1(C(C)C)CCOC(C)(C)C1)C(C)c1cccs1 (stereo not given)
-2.1 | Cc1ccc(NC(=O)CCC(=O)n2nc(C)cc2C)c(C)c1
2.2 | O=C(c1ccc([N+](=O)[O-])cc1)c1cc2ccc(O)cc2oc1=O
-1.2 | CCCNC(=O)C1CC(=O)N(c2ccc(OCc3ccc(F)cc3)cc2)C1 (stereo not given)
1.8 | Cc1cc(/C=C2/C(=N)N3C(=NC2=O)SN=C3S(C)(=O)=O)c(C)n1-c1ccc(F)cc1
2.1 | Cc1ccccc1C(=O)Nc1nc2c(C)csc2c(=O)s1
-0.04 | OCCC1CN(Cc2cc(F)ccc2-n2cccn2)CCN1C1CCCC1 (stereo not given)

(further entries)
Kir21 inh | smiles
-1 | O=C(CCc1nc2ccccc2c(=O)[nH]1)NCc1ccco1
-1.6 | COCC(C)N=C1NN=C(c2cc(C)n(Cc3ccccc3Cl)c2C)CS1 (stereo not given)
0.22 | CC1(C)C(=O)Nc2ccccc2N1C(=O)COC(=O)c1cc([N+](=O)[O-])ccc1N
-0.49 | CC(C)Oc1ccc(N2CC(C(=O)OCC(=O)NCc3ccccc3)CC2=O)cc1 (stereo not given)
-0.85 | NC(=O)CSc1nnc2n(N)c(=O)c3ccccc3n12
-0.25 | CCCc1nnc(NC(=O)CCCC(=O)O)s1
-1.1 | CCN(c1ccccc1)S(=O)(=O)c1ccc(Cl)c(C(=O)OCC(=O)NC(=O)C(C)C)c1
-0.99 | O=C1CCC(C(=O)N(CCO)Cc2ccccc2)CN1CCCN1CCOCC1 (stereo not given)
0.75 | COC(=O)c1ccc(CSc2ncnc3c2oc2ccccc23)o1
-0.1 | N/C(=N\OC(=O)CC1CCCCC1)c1ccccc1
0.23 | COC(=O)C1(C)NC(c2ccc(F)cc2)C2C(=O)N(c3ccccc3)C(=O)C21 (stereo not given)
-1.6 | COc1cc(/C=N/Nc2nc(C)cc(C)n2)ccc1OC(=O)c1ccco1
1.6 | O=C1CCC(C(=O)Nc2cccc3ccccc23)N1 (stereo not given)
0 | CCCOC1CCCN(C(=O)c2ccc(OC)c(OC3CCN(C(C)C)CC3)c2)C1 (stereo not given)
-0.43 | CCOCCCNC(=S)Nc1ccc2nc(N3CCOCC3)cc(C)c2c1
0.28 | Cc1ccc(NC(=O)Cn2cncc2-c2ccc([N+](=O)[O-])cc2)cc1C
0.98 | Cc1c(C)c2ccc(O)c(CN3CCN(C)CC3)c2oc1=O
0.37 | COc1ccc(C(=O)CSc2nnc(-c3cc(C)on3)o2)cc1
1.1 | CCCN(CCC)CCNC(=O)C1c2ccccc2C(=O)N2CCc3ccccc3C12 (stereo not given)
-0.7 | COC(=O)CCn1nnc(-c2ccc(C(C)C)cc2)n1
-0.01 | Cc1ccccc1CN1CCc2c(OCC(=O)N3CCCc4ccccc43)cccc2C1=O
-0.78 | CCOC(=O)C1=C(C)N=c2s/c(=C\c3cccc(OCC(=O)O)c3)c(=O)n2C1c1ccccc1OC (stereo not given)
-1.4 | CCc1cc(CNC(=O)CC2C(=O)NCCN2Cc2c(F)cccc2Cl)on1 (stereo not given)
0.77 | Cc1ccc(-c2noc(CN3CCC(C(N)=O)CC3)n2)cc1
-1.2 | CCC(C)NC(=O)Nc1ccc2c(c1)N(C)C(=O)c1ccccc1S2 (stereo not given)
0.53 | COC(=O)CNC(=O)c1cccs1
-0.09 | Cc1ccc(C(=O)N/N=C/c2nc3ccccc3n2C)cc1
0.09 | COc1cccc(CN(C)C(=O)c2ccccc2Sc2ccccc2C#N)c1
1.1 | O=C(CSC1=NS(=O)(=O)c2cc(F)ccc2N1)NCCc1ccccc1
-0.89 | CCNC(=S)N1CCN(CCN2C(=O)c3cccc4cccc(c34)C2=O)CC1
-0.6 | O=C(OCC(=O)N1CCCC1=O)c1cc(S(=O)(=O)N2CCOCC2)ccc1F
-0.04 | O=C(Nn1c(C2CCC2)nc2ccccc2c1=O)c1cccs1
1.2 | COc1ccc(OC)c(NC(=O)CSc2nnc(CNC(=O)c3ccccc3F)o2)c1
-0.13 | COc1ccc2c(c1)C1=C(CC2)C(c2ccc(C)cc2)NC(=S)N1 (stereo not given)
-1.6 | COC(=O)c1ccc([N+](=O)[O-])c(CS(=O)(=O)c2ccc(Cl)cc2)c1
3.4 | COC(=O)c1sc(NC(=O)c2ccc(OC)cc2OC)nc1C
1.4 | CCOC(=O)C1=C(C)N(C)C(=O)NC1c1cc2c(cc1Br)OCO2 (stereo not given)
0.16 | O=[N+]([O-])c1ccc2cn[nH]c2c1
0.95 | Cc1ccc(C(=O)Nc2cccc([N+](=O)[O-])c2)cc1S(=O)(=O)Nc1ccc(C(=O)O)cc1
1.1 | CC(Oc1ccccc1)C(=O)NCc1cccnc1 (stereo not given)
